miR-21 reporter = raises the signal of a miR-21 reporter. HeLa miR-21 FLuc reporter, luciferase, 48 h. Potency, µM (highest dose often 38.3 µM), inactives show at the highest dose reporter change, positive = more light. 340,000 tested, under 10 active. AID 2288; active = well fitted rising curve with a large enough effect; inconclusive = small, poorly fitted or top-dose-only effect; inactive = no such curve, though single readings can be large or run the other way;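 also: % of control where 0% means no effect; miR-21 action dims this reporter so a rising signal means less miR-21 action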
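Using DMEM plus 10% FBS, HeLa miR-21-FLuc cells are incubated with test compounds (final up to about 40uM) for 48 hours; firefly luciferase signal is then imaged following reagent-mediated lysis.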
Rango release inh = prevents RanGTP from dissociating the Rango-importin beta complex. Biochemical FRET Rango-importin beta, RanGTP-induced dissociation. Potency, µM (top dose mostly 46.1 µM), without a hit: at the highest dose activity change, negative = inhibition. AID 540253. 340,000 tested, 0.071% active; active means falling FRET ratio curve, often poorly fitted, with flat reads before Ran was added; inconclusive means other falling curves, or compound fluorescence or quenching; inactive means flat or rising ratio curve;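 also: potency is read from the fitted curve at half-maximal effect; % of control where 0% means no effect; nearly all actives have a fitted effect of over 45% in size; -100% = wells without RanGTP and RCC1; the record marks most hits as doubtful in a second field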
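FRET read at 45 min, room temperature: inhibitors block the CFP/YFP signal rise when RanGTP (0.6 uM Ran, 2 mM GTP, 0.2 uM RCC1) frees Rango (0.1 uM) from importin beta (0.25 uM). Pre-read after 5 min compound exposure flags interference.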
GLA inh pH 4.5 = blocks human alpha-galactosidase A at pH 4.5 | 230,000 tested, under 10 active | activity change, negative = inhibition, % at 105 µM | purified enzyme, 4-MU-alpha-Gal fluorescence, pH 4.5; inconclusive = small, poorly fitted or top-dose-only inhibition, or a rising curve; inactive = flat fitted curve, though single readings scatter; no compound was filed as active;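 also: 0% = full activity with enzyme and -100% = basal without enzyme; dose as in the result columns while the protocol names 77 µM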
Target sequence (P06280 whole entry, looked up): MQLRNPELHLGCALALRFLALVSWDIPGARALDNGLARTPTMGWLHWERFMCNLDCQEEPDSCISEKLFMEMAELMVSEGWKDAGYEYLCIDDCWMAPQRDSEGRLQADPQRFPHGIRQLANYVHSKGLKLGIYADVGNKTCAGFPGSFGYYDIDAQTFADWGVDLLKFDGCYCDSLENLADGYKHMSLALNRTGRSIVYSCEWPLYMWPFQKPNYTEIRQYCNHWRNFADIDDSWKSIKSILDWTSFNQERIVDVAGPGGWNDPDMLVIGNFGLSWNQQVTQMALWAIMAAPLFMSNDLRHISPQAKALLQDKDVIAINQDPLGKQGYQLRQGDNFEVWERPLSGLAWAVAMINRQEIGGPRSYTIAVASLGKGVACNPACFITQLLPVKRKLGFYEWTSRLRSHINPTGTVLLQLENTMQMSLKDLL
Rango complex inh = inhibitors of Rango-importin beta complex formation; Rango CFP/YFP FRET sensor + importin beta, 45 min; Potency, µM (series often up to 92.2 µM), for inactives: top-dose inhibition of complex formation; 340,000 tested, 0.031% active; AID 540263; active = rising FRET ratio curve, often small or poorly fitted; inconclusive = mostly compound fluorescence or quenching in the first reads; inactive = flat curves in all reads;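 also: potency is read from the fitted curve at half-maximal effect; 0% = DMSO wells and 100% = buffer wells lacking importin beta; nearly all actives have a fitted effect of over 15% in size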
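FRET biosensor Rango (snurportin 1 IBB between N-terminal EYFP and C-terminal Cerulean), 50 nM in PBS/1 mM DTT/0.02% Tween-20/0.1% BSA, preincubated 5 min RT with compound; 0.125 microM importin beta added, 45 min RT, CFP/YFP FRET ratio read.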
Starred values were filed as active, the others as inactive; ? = inconclusive; · = not tested or not shown; & = joins results of further samples. An excerpt, so the mix of outcomes need not match the whole.

Structure | miR-21 reporter | Rango release inh | GLA inh pH 4.5 | Rango complex inh
C/C(=N\NC(=O)c1ccncc1)c1cccc(NC(=O)c2ccc(Cl)s2)c1 | -16% | 6% | · | 4.0%
CCCCc1nc2sc3c(SCC(=O)NCc4ccco4)ncnc3c2c2c1CCC2 | -2% | -5% | 14 | ?
COc1ccc(OC)c(CCNC(=O)CSc2ccsc2[N+](=O)[O-])c1 | 2% | -3% | 3 | 6.9%
Cc1ccc(C(=O)OCC(=O)NC(C)C)cc1S(=O)(=O)N1CCOCC1 | 0% | -14% | 3 | 2.7%
COc1ccc(-c2cc(C(=O)Nc3ccc4c(c3)OCO4)no2)cc1OC | -13%&-6% | -7% | · | 2.0%
CCOC(=O)C1C2C=CC3(CN(c4ccc(Cl)c(F)c4)C(=O)C13)O2 (stereo not drawn) | -3% | -21% | · | -1.7%
CC(C)(C)OC(=O)NC(=NCCCc1cn(CC(=O)N2CCN(C(=O)OC(C)(C)C)CC2)nn1)NC(=O)OC(C)(C)C | -19% | 12% | -1 | 0.1%
Nc1ccc(C23CC4CC(CC(CO)(C4)C2)C3)cc1 | -19% | 0% | 1 | 4.1%
COCCCn1c(=O)/c(=C\c2ccc(OC(F)F)c(OC)c2)s/c1=C(/C#N)C(=O)NCCOC | 4% | ? | -1 | 0.6%
COCCC1CCCCN1C(=O)c1cc(COc2cccc(C(C)=O)c2)on1 (stereo not drawn) | -29% | -5% | · | 0.7%
CCC(CC)C(=O)NCCc1cc2c(OC)ccc(OC)c2[nH]c1=O | 1% | 12% | -7 | 3.5%
Cc1ccc(S(=O)(=O)c2nc(S(C)(=O)=O)sc2N2CCC3(CC2)OCCO3)cc1 | 2% | 1% | · | 0.7%
C/C(=N\NC(=O)c1ccc(CN2CCOCC2)cc1)c1ccc(NC(=O)c2ccccc2)cc1 | -53% | -2% | 2 | 0.3%
O=C(N=Nc1c(O)[nH]c2ccccc12)c1cc(NS(=O)(=O)c2cccs2)cc(NS(=O)(=O)c2cccs2)c1 | 1% | -7% | -5 | -3.6%
COCCNC(=O)c1ccc2c3n(nc2c1)-c1ccc(Cl)cc1CO3 | -57% | -9% | 4 | -3.0%
COC(=O)c1[nH]c2ccccc2c1NC(=O)CN1CCN(C(=O)c2ccco2)CC1 | -10% | -2% | 5 | -6.4%
CN(C)S(=O)(=O)c1ccc2nnn(O)c2c1 | -2% | -14% | 10 | -2.2%
O=C1CCC(C(=O)N2CCCCO2)CN1Cc1cccc(F)c1 (stereo not drawn) | -8% | -17% | · | -0.5%
Cc1ccc(O)c(NC(=O)C2CC(c3c(F)cccc3Cl)=NO2)c1 (stereo not drawn) | -18% | -5% | 0 | -3.4%
Nc1ccc2c(c1)C/C(=C/c1ccco1)C2=O | -37% | ? | -2 | ?
CC[n+]1c(/C=C2\Sc3ccccc3N2C)ccc2cccc(C)c21 | ? | 13% | -1 | ?
CCOC(=O)c1cnc(=O)[nH]c1C | -5% | -29% | 14 | ?
Cc1ccc(NC(=O)CSc2ccc(-c3cccnc3)nn2)c(C)c1 | -8% | -13% | · | -3.1%
COc1ccccc1CNC(=O)CN1C(=O)NC(C)(c2ccc(C)cc2)C1=O (stereo not drawn) | -1% | 5% | · | -3.2%
O=C(Nc1cccc2c1CCCC2)c1cc([N+](=O)[O-])ccc1Cl | ? | -8% | 2 | 0.7%

Part of the list above, with the structure last:
miR-21 reporter | Rango release inh | GLA inh pH 4.5 | Rango complex inh | SMILES
-2% | -5% | 14 | ? | CCCCc1nc2sc3c(SCC(=O)NCc4ccco4)ncnc3c2c2c1CCC2
-3% | -21% | · | -1.7% | CCOC(=O)C1C2C=CC3(CN(c4ccc(Cl)c(F)c4)C(=O)C13)O2 (stereo not drawn)

Later entries:
Structure | miR-21 reporter | Rango release inh | GLA inh pH 4.5 | Rango complex inh
COc1ccccc1C(=O)NC(=O)COC(=O)CNC(=O)c1ccc(Cl)c([N+](=O)[O-])c1 | · | 12% | · | -0.2%
COc1ccccc1/C=C(/C(=O)NCCCn1ccnc1)c1ccccc1 | 1% | -15% | 4 | 0.5%
COc1ccccc1C1C(C(N)=O)=C(C)Nc2nc(CCCO)nn21 (stereo not drawn) | 2% | 12% | · | 0.3%
CCN(C(=O)Cn1c(=O)oc2ccccc21)c1cccc(C)c1 | -4% | -8% | · | -0.2%
COCCCNC(=O)c1ccc2c(=O)n(Cc3ccc(OC)cc3)c(=O)[nH]c2c1 | 4%&-3% | 6% | 20 | 1.2%
CC(C)CCn1c(=O)c2ccccc2n2c(CN3C(=O)NC4(CCC(C)CC4)C3=O)nnc12 (stereo not drawn) | -3% | 11% | -2 | -1.0%
CCOC(=O)N1CCN(C(=O)C2CCN(S(=O)(=O)c3cc(Cl)ccc3OCC)CC2)CC1 | 2% | 22% | · | -2.9%
CNc1ccccc1C(=O)OC(C)C(=O)Nc1ccc(Cl)cn1 (stereo not drawn) | 15% | 17% | · | 0.7%
CC(=O)Nc1c(NC(=O)CC#N)[nH]c2c(c1=O)c(=O)n(C)c(=O)n2C | -1% | 26% | 4 | -1.3%
C/C(CCC(=O)OC[C@H]1O[C@H](C#Cc2ccccc2)C=C[C@@H]1Oc1ccc(C)cc1)=N\OC[C@@H](O)[C@H]1O[C@@H]2OC(C)(C)O[C@@H]2[C@H]1O | 22% | · | -4 | ·
O=c1c2[nH]c3ccccc3c2ncn1CCCn1ccnc1 | 1% | -1% | 3 | -5.3%
O=c1cc(-c2ccc(O)cc2)oc2c(C3OCC(O)C(O)C3O)c(O)c(C3OC(CO)C(O)C(O)C3O)c(O)c12 (stereo not drawn) | -4% | -4% | -2 | -5.4%
COc1cc(/C=C2\SC(=S)N(NC(=O)c3cccc(O)c3)C2=O)ccc1O | -9% | -15% | · | ?
COc1ccccc1/C=N/NC(=O)c1cccc2ccccc12 | 1% | -16% | · | 2.3%
NC(=O)C1CCCN1S(=O)(=O)c1ccc2ccccc2c1 (stereo not drawn) | 0% | 10% | · | 2.4%
CCOC(=O)N1CCN(C(=O)CSc2nc(=O)n3ccccc3n2)CC1 | · | -5% | · | -0.4%
Cc1csc2nc(CSc3nc4ccccc4o3)cn12 | -52% | 20% | -9 | -1.2%
Cc1cc(NC(=O)CCC(=O)N(c2ccc(F)cc2)C(C(=O)NC2CCCC2)c2cccnc2)no1 (stereo not drawn) | -2% | -7% | · | -2.7%
CCOc1ccc(/C(=N\O)C(C)NO)cc1 (stereo not drawn) | -9% | 11% | 3 | 5.8%
COc1cc(O)c(C(CCN2CCCC2)c2cc(OC)c(OC)c(OC)c2)c(OC)c1 (stereo not drawn) | -4% | -7% | 3 | -2.6%
CCOC(=O)N1CCN(c2ncnc3c2[nH]c2ccc(F)cc23)CC1 | ? | 19% | -4 | 0.2%
CSc1nnc(-c2sc(-c3ccccc3)nc2C)n1C | -25% | -1% | -25 | 0.9%
O=C(NCCC1=CCCCC1)C1CCN(S(=O)(=O)N2CCCC2)CC1 | -4% | 1% | 3 | -1.7%
COc1cc(C(C)=O)ccc1OCCCOc1cccc2cccnc12 | -36% | 9% | · | 0.1%
OCC1OC(n2cnc3c(SCc4ccccc4)ncnc32)C(O)C1O (stereo not drawn) | · | 8% | · | 0.1%

Compound profiles (already shown). Order of values: miR-21 reporter	Rango release inh	GLA inh pH 4.5	Rango complex inh
`OCC1OC(n2cnc3c(SCc4ccccc4)ncnc32)C(O)C1O` (stereo not drawn) is listed as ·	8%	·	0.1%
`COc1ccccc1C(=O)NC(=O)COC(=O)CNC(=O)c1ccc(Cl)c([N+](=O)[O-])c1` is listed as ·	12%	·	-0.2%

Remaining list, next part:
Structure | miR-21 reporter | Rango release inh | GLA inh pH 4.5 | Rango complex inh
CC(C)[C@H](NC(=O)OCc1ccccc1)C(=O)OCC(=O)N1CCCCC1 | · | -2% | · | 0.0%
CN1C(=O)C(CC(=O)Nc2ccc(F)cc2)N(NC(=O)c2cccc(F)c2)C1=S (stereo not drawn) | -7% | -4% | 2 | 4.7%
COc1ccc(NC(C)C(=O)Nc2ccc(C(C)(C)C)cc2)cc1Cl (stereo not drawn) | 0% | -1% | -18 | -0.1%
COc1ccc(OCC(=O)Nc2ccc(NC(=O)c3ccccc3Cl)c(OC)c2)cc1 | -4% | ? | · | 0.2%
O=C(COC(=O)Cc1cccc(C(F)(F)F)c1)NC1CC1 | 2% | 37% | -3 | -1.6%
CCOc1ccc(NC(=O)C(=O)NCCCn2ccnc2)cc1 | -1% | -4% | 1 | -4.1%
O=S(=O)(Nc1ccc(N2CCOCC2)cc1)c1c(F)cc(F)cc1Br | -3% | -15% | · | 3.8%
CC(=O)Nc1ccc(NC(=O)C(C)OC(=O)CCCN2C(=O)c3cccc4cccc(c34)C2=O)cc1 (stereo not drawn) | · | 33% | · | 1.0%
CCc1ccccc1NC(=O)C1CCCN(c2ncccn2)C1 (stereo not drawn) | 3% | 8% | · | -3.1%
Cc1ccc(S(=O)(=O)Nc2cc3c4c(c2)C(C)C(=O)N4CCC3)cc1 (stereo not drawn) | · | -4% | · | 6.0%
NS(=O)(=O)c1ccc(NC(=O)COC(=O)Cn2cnc3ccccc3c2=O)cc1 | · | 14% | · | 1.9%
COCc1c(C(=O)NCCc2ccc(OC(F)F)cc2)oc2ccccc12 | · | -15% | · | 0.8%
CCN(CC)S(=O)(=O)c1cccc(NC(=O)CCNC(=O)c2ccc([N+](=O)[O-])cc2)c1 | 7% | -21% | 1 | -6.1%
CC(=O)c1c(C)[nH]c(C(=O)N2c3ccccc3CC2C)c1C (stereo not drawn) | -2% | 1% | -1 | 0.1%
CN1CCN(c2ccncc2S(=O)(=O)N2CCCCC2)CC1 | -7% | -9% | · | 6.1%
CCOc1ccc(NS(=O)(=O)c2ccc3[nH]cc(C(=O)NCC4CCCO4)c(=O)c3c2)cc1 (stereo not drawn) | 17%&-2% | 9% | · | ?
O=C1NC(=O)/C(=C/c2ccccc2Oc2ccc(Cl)cc2)S1 | -2% | 6% | -9 | 1.2%
O=S(=O)(c1ccc(Cl)cc1)N1CCc2ccccc21 | 1% | -27% | · | ?
Cc1cccc(C(=O)NCC(=O)NC2CCN(Cc3ccccc3)CC2)c1 | · | -12% | · | ?
O=C(N/N=C/c1cccc(OCc2ccccc2)c1)c1ccc(Br)cc1 | -7% | -23% | 2 | 8.4%
FC(F)(F)c1nnc2c(Sc3ccc(Cl)cc3)nc3ccccc3n12 | -2% | -8% | 4 | -3.9%
C=CCN=C1NN=C(c2ccc3c(c2)OCCO3)CS1 | 10% | -13% | -6 | 0.6%
Cc1nc2c(C(=O)NCc3ccccc3)c[nH]n2c(=O)c1Cl | -8% | 10% | 6 | -1.6%
COCC(=O)NC(c1ccccc1)c1ccccc1 | -1% | 8% | 6 | 0.3%
C/C(=N\NS(=O)(=O)c1ccc([N+](=O)[O-])cc1)c1cccs1 | -15% | 4% | 9 | 1.4%
N=C(N)SCCc1cnc[nH]1 | · | -1% | -1&3 | -4.7%
CCN(CC)c1nc(-c2ccccc2)nc2ccccc12 | 0% | -1% | · | 3.0%
CCOc1ccc(C(=O)CCC(=O)N2CCN(c3ccc(O)cc3)CC2)cc1 | · | -23% | · | -3.0%
C=CCn1c(Cc2c[nH]c3ccccc23)nnc1SCC(=O)NCc1ccccc1 | -3% | -10% | -2 | -2.2%
COc1ccc(S(=O)(=O)N2CCOCC2)cc1NC(=O)Cc1ccsc1 | · | ? | · | 1.9%
CCNC(=O)Cn1cc(C#N)c2ccccc21 | -9% | 1% | 1 | -0.2%
CCC1(c2ccc(F)cc2)NC(=O)N(CC(=O)NCc2ccc(C)cc2)C1=O (stereo not drawn) | 3% | 10% | · | -1.4%
CCOC(=O)C1=C(C)Nc2nc3ccccc3n2C1c1ccc(O)cc1 (stereo not drawn) | 2% | 0% | -6 | 0.6%
COC(=O)C[C@H](NC(=O)Cn1cnc(C(=O)Nc2ccc(C)c(C)c2)n1)C(=O)OC | · | 1% | · | 0.0%
